2A Renilla: FMDV 2A StopGo reporter, Renilla signal. Potency, µM (titrated, usually from 57.5 µM), for the others: top-dose signal change, negative = less light. HEK cells with a luciferase reporter of 2A StopGo recoding. 120,000 compounds, 0.32% hits; active means well fitted falling curve with a large enough effect; inconclusive means small, poorly fitted or top-dose-only effect; inactive means no such curve, though single readings can be large or run the other way; further: nearly all actives have a fitted effect of over 55% in size; overnight with compound
2A firefly: lowers the firefly signal of an FMDV 2A StopGo reporter; AID 1745856; Potency, µM (top dose mostly 57.5 µM), for inactives: at the highest dose signal change, negative = less light; HEK cells with a luciferase reporter of 2A StopGo recoding; 120,000 compounds, 0.23% hits; active = well fitted falling curve with a large enough effect; inconclusive = small, poorly fitted or top-dose-only effect; inactive = no such curve, though single readings can be large or run the other way; further: nearly all actives have a fitted effect of over 60% in size; overnight with compound
* = called active by the depositor; ? = inconclusive; & = joins results of further samples; [ ] = dose if it differs, or a comment. On the % scale 0 is the no-effect control and ±100 the full control effect; potency means the concentration at half of the fitted maximal effect.

SMILES	2A Renilla	2A firefly
CCCCN(C)CC(O)Cn1cc(/C=C/C(=O)c2ccc(Br)cc2)c2ccccc21 (stereo not given)	-15%	3%
O=C(Nc1ccccc1C(=O)NC1CCCC1)c1ccnc(-n2cncn2)c1	-2%	6%
O=C(CSc1cn(CC(=O)N2CCOCC2)c2ccccc12)Nc1ccccc1F	21%	3%
COc1ccc(N2C(=O)CSC23C(=O)N(Cc2cccc(F)c2)c2ccccc23)cc1Cl (stereo not given)	-3%	-19%
CC(CCc1ccccc1)NC(=O)Cn1ncc2c3ccccc3n(Cc3cccc(Cl)c3)c2c1=O (stereo not given)	-3%	-3%
CCNc1c(NC(=O)c2cc(OCC)c(OCC)c(OCC)c2)c(=O)oc2ccccc12	1%&37%	-12%&-24%
CCOc1cc(C(=O)N2CCc3c([nH]c4ccccc34)C2c2ccccc2)cc(OCC)c1OCC (stereo not given)	-2%	-22%
COc1ccc(-c2n[nH]c3c2C(c2ccc(Cl)cc2Cl)NC3=O)cc1 (stereo not given)	-2%	-2%
CCOc1ccc(N(Cc2ccccc2)C(=O)c2nc(S(C)(=O)=O)ncc2Cl)cc1	-5%	22µM*
CCCCCCCC(=O)Nc1ccc(C(=O)N/N=C/c2cccc(Br)c2)cc1	12%	0%
CCN(CC)C(=O)c1ccc(NS(=O)(=O)c2ccccc2C#N)cc1	6%[1.06 µM]	9%
Cc1cccc(C)c1OCc1nc2c3c(-c4ccccc4)c(-c4ccccc4)oc3ncn2n1	0%	-11%
COc1cccc(Cn2c(=O)c3sccc3n(CC(=O)N(C)C3CCCCC3)c2=O)c1	0%	0%
CCc1cc(C(=O)Nc2c(C)nn(Cc3ccccc3Cl)c2C)no1	-7%	-3%
COc1ccc(C2=NOC(C(=O)Nc3ccc(OC(F)(F)F)cc3)C2)cc1 (stereo not given)	-7%	0%
COc1ccc2sc(N(Cc3cccnc3)C(=O)COc3ccccc3)nc2c1	2%	19%
Cc1ccc(CNC2c3ccccc3-c3ccccc32)cc1	2%	4%
CCOc1ccc(-c2nnc(SCC(=O)NCc3ccc(C)cc3)nc2-c2ccc(OCC)cc2)cc1	-5%	3%
Cn1ncc(C(=O)NCc2ccncc2)c1-n1cccc1	-16%	2%
COc1ccc(OC)c(NC(=O)C(=O)c2cn(CC(=O)N3CCOCC3)c3ccccc23)c1	11%	17%
CC(=O)NC(C(=O)NC(C)c1ccc(Cl)cc1)C(C)C (stereo not given)	-1%[1.06 µM]	-3%
Cc1cc(OCC(=O)NC2CC2)c2c(C)c(C)c(=O)oc2c1	26%	0%
CCCNC(=O)C(C)Sc1nc2ccc(F)cc2c(=O)[nH]1 (stereo not given)	-9%	-4%
N#CC1(C(=O)Nc2cccc(Cl)c2)CCCC1	12%	13%
Cn1c(=O)c2c(nc(NCc3ccc(S(N)(=O)=O)cc3)n2Cc2ccc(F)cc2)n(C)c1=O	4%	16%
CC(C(=O)N1CCc2ccccc2C1)N(C)CC(=O)Nc1ccccc1C(F)(F)F (stereo not given)	3%	2%
CCc1ccc(OCc2nnc(SCc3c(F)cccc3Cl)n2CC(C)C)cc1	122%[activator]	-11%
Cc1ccc(C(=O)NC2(C(F)(F)F)N=C(c3ccccc3)N(Cc3ccccc3)C2=O)cc1 (stereo not given)	13%	-10%
CCCCN1Cc2c(sc(C)c2C)N(C(=O)c2ccccc2)C1	27%	174%[activator]
Cc1ccc2oc(=O)cc(CN3CCN(c4cccc(Cl)c4)CC3)c2c1	5%	10%
CN1CCc2c(C#N)c(NCc3cccnc3)n3cnnc3c2C1	-7%	0%
CCc1nn(CC(=O)NCCCOC)c(=O)c2cc3occc3n12	?	22%
NS(=O)(=O)c1cc(C2(O)NC(=O)c3ccccc32)ccc1Cl (stereo not given)	-5%	0%[11.5 µM]
O=C(CCn1cnc2sc3c(c2c1=O)CCCC3)NC1CC1	-3%	39%[activator]
CC(=O)c1ccc(NC(=O)c2cn(CCC#N)nc2-c2cccs2)cc1	23%	30%
Cc1cccc(C(=O)Nc2sc3c(c2C(=O)NCc2ccco2)CCCC3)c1	-12%	17%
O=[N+]([O-])c1ccccc1C=C(c1ccccc1)c1ccccc1	16%	17%
Cc1cccc(NC(=O)c2ccc3c(c2)CCC3)c1C	11%	239%[activator]
N#Cc1nc(C2CC2)oc1N1CCN(Cc2cccc3ccccc23)CC1	-10%	-7%
CCCCCCOCCOc1ccccc1OCCOCCCCCC	-13%	7%

Reformatted as a markdown table: entries from further up.
| SMILES | 2A Renilla | 2A firefly |
| --- | --- | --- |
| CC(CCc1ccccc1)NC(=O)Cn1ncc2c3ccccc3n(Cc3cccc(Cl)c3)c2c1=O (stereo not given) | -3% | -3% |
| CCNc1c(NC(=O)c2cc(OCC)c(OCC)c(OCC)c2)c(=O)oc2ccccc12 | 1%&37% | -12%&-24% |
| CCOc1cc(C(=O)N2CCc3c([nH]c4ccccc34)C2c2ccccc2)cc(OCC)c1OCC (stereo not given) | -2% | -22% |

Next section
SMILES	2A Renilla	2A firefly
CCC(C(=O)N1CCN(c2cc(Cl)ccc2C)CC1)n1nc(C)c2sc3ccccc3c2c1=O (stereo not given)	-12%	0%
CCOC(=O)/C(C#N)=C/c1ccc(OCc2ccc(Cl)cc2Cl)cc1	-2%	0%
Cc1ccc(C(=O)N(C)[C@H]2C[C@H]3c4[nH]c5c(-c6cccc(C)c6)cccc5c4CCN3C[C@H]2[C@H](C)O)cc1	6%	7%
CCOC(=O)c1c(C)oc2nc(C)nc(NCc3ccc(OC)cc3)c12	-16%	-13%
COc1cccc(Cn2c(SCc3ccc(C(=O)N4CCCCC4)cc3)nc3ccncc32)c1	?	?
COc1ccc(CCC(C)NC(=O)C2(C#N)CCCC2)cc1 (stereo not given)	-15%	-1%
O=C(Nc1cc(Br)ccc1I)C1CC2CCC1C2 (stereo not given)	-8%	1%
CCOc1ccc(-n2c(=O)c3c4c(sc3n(Cc3cccc(C)c3)c2=O)CCCC4)cc1	-14%	-23%
Cc1ccc(Cl)cc1N1CCN(S(=O)(=O)c2cc(Br)cc3c2N(C(=O)C2CC2)CC3)CC1	17%	1%
CC(SC(c1ccccc1)c1ccccc1)C(=O)NC(C)(C)C (stereo not given)	-2%	-20%
Cc1cc2ccccc2n1CC(=O)Nc1ccc(OCC(N)=O)cc1	10%	14%
CCN1CCN(c2nc(-c3ccccc3)c3ccccc3n2)CC1	-15%	-21%
CCCNC(=O)CN1C(=O)c2cccnc2Sc2ccccc21	1%	-2%
CC(=O)NNC(=S)Nc1ccc(Cl)c(Cl)c1	6%	9%
O=C1/C(=C/c2ccc(OCc3ccccc3)cc2)CCc2ccccc21	-14%	36%[activator]
CC(=O)NC(NC(C)=O)c1ccncc1	4%	1%
COc1cccc(Oc2ccc(N/C=C/C(=O)c3ccc(Cl)cc3)cc2)c1	9%	55%[activator]
Cn1c(=O)[nH]c(=O)c2c1nc(CN(Cc1ccccc1)Cc1ccccc1)n2CC(N)=O	13%	1%
Cc1cccc(N(CC(=O)Nc2ccccc2C(F)(F)F)S(=O)(=O)c2ccccc2)c1C	143%[activator]	19%
COc1ccc(CCNC(=O)Cn2ncc3c(=O)oc4ccccc4c32)c(OC)c1	-10%	-8%

Taken from above:
CC(=O)NC(NC(C)=O)c1ccncc1 | 2A Renilla = 4%
CC(=O)NNC(=S)Nc1ccc(Cl)c(Cl)c1 | 2A Renilla = 6%
Cn1c(=O)[nH]c(=O)c2c1nc(CN(Cc1ccccc1)Cc1ccccc1)n2CC(N)=O | 2A Renilla = 13%

Returning to the listing; the four compounds before the break are reprinted first.
SMILES	2A Renilla	2A firefly
COc1cccc(Oc2ccc(N/C=C/C(=O)c3ccc(Cl)cc3)cc2)c1	9%	55%[activator]
Cn1c(=O)[nH]c(=O)c2c1nc(CN(Cc1ccccc1)Cc1ccccc1)n2CC(N)=O	13%	1%
Cc1cccc(N(CC(=O)Nc2ccccc2C(F)(F)F)S(=O)(=O)c2ccccc2)c1C	143%[activator]	19%
COc1ccc(CCNC(=O)Cn2ncc3c(=O)oc4ccccc4c32)c(OC)c1	-10%	-8%
CCN(CC)C(=O)c1cc(-c2ccc(C)cc2)nc2ccccc12	70%[activator]	48%[activator]
Cc1c(C(=O)N2CCCCCC2)c(S(=O)(=O)N2c3ccccc3CC2C)c(C)n1C (stereo not given)	33%[activator]	-16%
O=C(c1ccc2c(c1)OCO2)c1cn(Cc2ccc(Cl)cc2)c2ccc(F)cc2c1=O	-4%	1%
CCOc1ccc(S(=O)(=O)N2CCC(N3CCN(Cc4ccc(F)cc4)C(=O)C3=O)CC2)cc1	-4%	-15%
COc1ccc2oc(-c3ccc(NC(=O)c4ccc(C)cc4)cc3)nc2c1	-10%	42%[activator]
Cc1cc(C)cc(NC(=O)C2CCCN(c3cnccn3)C2)c1 (stereo not given)	13%	-9%
Cc1cc(C)c2oc(-c3cc(NC(=O)c4cccnc4)cc(C)c3O)nc2c1	-9%	-9%
COc1ccc(Br)cc1C(=O)Nc1c(NCc2ccccc2)c2ccccc2oc1=O	-9%	0%
Cc1cccc(Cc2c(C)nc3nc(SCc4ccccc4Cl)nn3c2C)c1	1%	1%
CCn1nc(-c2ccc(C)c(S(=O)(=O)NC3CC3)c2)c2c(c1=O)CCCC2	311%[activator]	37%[activator]
CCc1cccc(OCC(=O)Nc2ccc(S(=O)(=O)Nc3cc(C)nc(C)n3)cc2)c1	105%[activator]	28%
CCCOC(=O)c1c(NC(=O)c2nc3ncccn3n2)sc(C(=O)OCC)c1C	3%	5%
COc1ccc(C(=O)Nc2cc(-n3cnnn3)ccc2N2CCCCC2)cc1Br	-10%	-6%
CC1CCC(C(=O)NC(C(=O)O)C(C)C)CC1 (stereo not given)	10%	1%
Cc1oc2cc(OCC(=O)Nc3ccc(N4CCOCC4)cc3)ccc2c(=O)c1-c1ccccc1	0%	-23%
COc1ccc(NC(=O)CC2Sc3ccccc3NC2=O)cc1OC (stereo not given)	218%[activator]	-18%
CCOP(=O)(OCC)c1nc(-c2cccc3ccccc23)oc1N1CCOCC1	11%	6%
COc1ccccc1Cn1cc(C(=O)c2ccc(Cl)cc2)c(=O)c2ccccc21	-22%	-36%
CCn1c(C)c(C2N3CC4(C)CN2CC(C)(C3)C4=O)c2ccccc21 (stereo not given)	-14%	-13%
COc1cc(C(=O)OCc2cccc(C(F)(F)F)c2)ccc1OCc1ccc(Cl)cc1Cl	2%	0%

5 structures out of the list, arranged by formula weight, smallest number first.
SMILES	2A Renilla	2A firefly
CC(=O)NC(NC(C)=O)c1ccncc1	4%	1%
CC(=O)NC(C(=O)NC(C)c1ccc(Cl)cc1)C(C)C (stereo not given)	-1%[1.06 µM]	-3%
O=C1/C(=C/c2ccc(OCc3ccccc3)cc2)CCc2ccccc21	-14%	36%[activator]
COc1cccc(Cn2c(SCc3ccc(C(=O)N4CCCCC4)cc3)nc3ccncc32)c1	?	?
Cc1ccc(C(=O)N(C)[C@H]2C[C@H]3c4[nH]c5c(-c6cccc(C)c6)cccc5c4CCN3C[C@H]2[C@H](C)O)cc1	6%	7%

The listing continues.
SMILES	2A Renilla	2A firefly
O=C(CSc1ncnc2nc[nH]c12)NCCc1ccc(Cl)cc1	-3%	4%
CCc1ccc(NC(=O)c2cc3ccccn3n2)cc1	?	-3%
Cc1cnc(C(=O)Oc2c(C)cccc2C)cn1	6%	9%
O=C(NCc1ccccc1)c1ccc(S(=O)(=O)N2CCCCCC2)cc1	25%	9%
CC(C)CCNC(=O)C(=O)Nc1c2c(nn1-c1ccc(Cl)cc1)CSC2	-2%	-6%
Cc1ccc(-n2c3c(c(=O)[nH]c2=O)C(NS(=O)(=O)c2ccc(Cl)cc2)(C(F)(F)F)C(=O)N3)cc1 (stereo not given)	-12%	-9%
N#CC1=C(N)OC2=C(C(=O)CCC2)C1c1ccc(-c2c(Cl)cc(Cl)cc2Cl)o1 (stereo not given)	-9%	-7%
Cc1ccccc1-c1cc(C(=O)N2CCOCC2)c2ccccc2n1	-11%	-6%
COc1cc(NC(=O)C2=CC(c3ccco3)=NS(=O)(=O)N2C)cc(OC)c1OC	?	-4%
CCOC(=O)c1cc(-c2ccc(OC)c(S(=O)(=O)Nc3ccc(OC)cc3OC)c2)on1	4%	21%
Cc1[nH]c2ccccc2c1C(=O)C(C)NC(C)c1ccc(F)c(F)c1 (stereo not given)	2%	11%
CCOC(=O)N1CCN(Cc2nc3cc(NC(=O)CC)ccc3n2C(C)C)CC1	-9%	28%
CCCCCCCCCCCCSCCOCCO	-7%	-18%[11.5 µM]
CCOc1cc(C(=O)Nc2cnc3ccccc3c2)ccc1OC	-2%	221%[activator]
CC1Cc2ccccc2N1S(=O)(=O)c1nnc(NC(=O)c2ccccc2Br)s1 (stereo not given)	7%	-11%
CC(C)CC(=O)N1CCC(N2CCCCCC2)CC1	4%	2%
CN(C)CCNc1oc(/C=C/c2ccccc2)nc1C#N	31%[activator]	2%
Cc1cc(C)cc(C(=O)NCc2ccco2)c1	-6%	2%
O=C1Nc2cc(Cl)c(Cl)cc2N(O)N1c1ccc(Br)cc1F	-9%	-4%
CN(Cc1ccccc1)C(=O)OCc1cn(Cc2ccc(C(F)(F)F)cc2)nn1	-18%	-22%
COCCn1c(=O)[nH]c2cc(C(=O)NCc3ccccc3Cl)ccc2c1=O	30%	14%
CCOc1ccc(N(CC(=O)Nc2ccc(C(N)=O)cc2)S(=O)(=O)c2ccccc2)cc1	53%[activator]	23%
Cc1cccc(Nc2nnc(-c3ccc(C)c(S(=O)(=O)NCC4CCCO4)c3)c3ccccc23)c1 (stereo not given)	-1%	-4%
CCOC(=O)c1cnc2cc(C(F)(F)F)ccc2c1N1CCN(c2cccc(Cl)c2)CC1	-6%	-14%
C/C=C/Oc1ccc(C(=O)/C(=C\c2cccnc2)c2nc3ccccc3o2)cc1	?	?
Cn1c(=O)c2c(-c3ccccc3)n3c4ccccc4nc(-c4ccccc4)c3c2n(C)c1=O	-4%	-10%
O=C(COCc1cc(-c2ccc3c(c2)OCO3)on1)N1CCN(c2ccccc2)CC1	-18%	24%
CC1CCc2c(sc(NC(=O)C3c4ccccc4Oc4ccccc43)c2C(=O)OC(C)C)C1 (stereo not given)	-8%	-15%
